TRPML1 blocker = qHTS for Inhibitors of the Human Mucolipin Transient Receptor Potential 1 (TRPML1); TRPML1-inducible cells, Ca2+ dye fluorescence, FDSS; active compounds read low; inhibition of EC80 agonist-evoked calcium signal; 0.02% of 390,000 active; activity change, negative = inhibition, % (concentration not given with the values); Mucolipin-1 (Homo sapiens), Q9GZU1; AID 624415, 2012; in the data active means activity change below about -50%; inconclusive means about -30% to -50%; inactive means above about -30%;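 also: stimulus is agonist 54-4 at its EC80 concentration; % is scaled to controls: 0 for no effect and ±100 for the full control effect; the text of the record puts the active cut at -80%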
Target sequence (Q9GZU1 whole entry, looked up): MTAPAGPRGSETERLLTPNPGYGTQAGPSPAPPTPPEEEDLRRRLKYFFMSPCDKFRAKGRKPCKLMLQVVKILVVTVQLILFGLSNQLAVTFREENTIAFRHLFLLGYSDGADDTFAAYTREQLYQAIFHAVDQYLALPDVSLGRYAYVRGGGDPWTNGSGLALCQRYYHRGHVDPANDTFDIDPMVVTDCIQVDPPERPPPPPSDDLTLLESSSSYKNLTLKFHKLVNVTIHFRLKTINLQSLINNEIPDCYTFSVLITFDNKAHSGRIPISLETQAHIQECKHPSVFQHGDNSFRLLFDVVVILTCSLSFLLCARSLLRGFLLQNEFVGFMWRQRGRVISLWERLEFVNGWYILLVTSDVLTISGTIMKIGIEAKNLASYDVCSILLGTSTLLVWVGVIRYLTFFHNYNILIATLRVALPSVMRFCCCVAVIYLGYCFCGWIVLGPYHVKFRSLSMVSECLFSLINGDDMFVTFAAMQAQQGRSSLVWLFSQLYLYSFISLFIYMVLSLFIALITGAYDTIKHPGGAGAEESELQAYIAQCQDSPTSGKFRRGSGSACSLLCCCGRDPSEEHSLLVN
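Calcium fluorescence in TRPML1-DL cells induced overnight with Tet: a 110 s read after compound pin addition, then a 110 s antagonist read after challenge with 54-4 at 4 uM final (EC80).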
TRPML1 ag = qHTS for Agonists of the Human Mucolipin Transient Receptor Potential 1 (TRPML1) | Mucolipin-1 (Homo sapiens), Q9GZU1 | TRPML1-expressing cells, Ca2+ dye fluorescence, FDSS; host cell line not named in the record; reference of the full effect not given here | activation, % (test concentration not listed) | 0.12% of 410,000 active | AID 624414, 2012; in the data active = activation above about 50%; inconclusive = about 30% to 50%; inactive = below about 30%; also: 0% is about no effect; the text of the record puts the active cut at 80%
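Tetracycline-induced TRPML1-DL cells are seeded and incubated overnight before loading with a no-wash Ca2+ dye and quencher. Agonist activity is taken from the 110 s fluorescence read following compound pin-transfer on an FDSS, before EC80 54-4 challenge.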
Menin MLL FP FL = qHTS Assay for Inhibitors Targeting the Menin-MLL Interaction in MLL Related Leukemias: Competition With Fluorescein Labeled MLL-derived Peptide | 290,000 tested, under 10 active | Fluorescence polarization, fluorescein-MLL peptide displacement from menin | FP activity change, % at 61.4 µM; inconclusive = falling polarisation curve, or a change in total fluorescence; inactive = total fluorescence flat and polarisation flat or rising; no compound was filed as active; the % refers to the polarisation; negative = inhibition;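 also: % of control where 0% means no effect; inhibitors lower the polarisation; unlabelled MLL peptide was the positive control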
ClpP mod = qHTS Assay for Activators of ClpP; ATP-dependent Clp protease proteolytic subunit (Bacillus subtilis (strain 168)), P80244; purified B. subtilis ClpP, FRET peptide cleavage, 20 min; Potency, µM (doses to about 57.5 µM), inactives show at the top dose activity change, negative = active; 1.9% of 340,000 active; AID 651965, 2013; active = well fitted falling curve with a large enough effect; inconclusive = small, poorly fitted or top-dose-only effect; inactive = no such curve, though single readings can be large or run the other way; also: potency is read from the fitted curve at half-maximal effect; the source files actives as falling curves though it sought activators and does not explain the sign; nearly all actives have a fitted effect of over 65% in size; many hits overshoot -100%
Target sequence (P80244 whole entry, looked up): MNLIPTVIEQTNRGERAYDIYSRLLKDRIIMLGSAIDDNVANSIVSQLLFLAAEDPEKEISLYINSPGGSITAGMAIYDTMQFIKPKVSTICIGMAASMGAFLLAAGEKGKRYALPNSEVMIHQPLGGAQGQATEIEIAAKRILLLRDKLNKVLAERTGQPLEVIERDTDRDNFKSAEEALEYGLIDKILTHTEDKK
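ClpP 10 microg/mL final, pH 8 Tris/KCl buffer with BSA, glycerol, Tween-20; compound pinned in; FRET-FV substrate; RT 20 min; Ex320/Em430; ΔFRET vs ADEP 5.8 microM, DMSO, no enzyme.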
gsp antag = qHTS for Antagonists of gsp, the Etiologic Mutation Responsible for Fibrous Dysplasia/McCune-Albright Syndrome: qHTS. gsp-mutant cells, cAMP HTRF, 30 min; control for the full effect not named in the record. Potency, µM (top dose mostly 76.9 µM), for the others: top-dose activity change, negative = inhibition, usual class: inhibitors. 0.4% of 340,000 active. AID 624288, 2012; active = falling curve of any shape with a large fitted effect; inconclusive = falling curve, mostly with a smaller effect; inactive = flat or rising curve; cell line not stated here;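 also: intracellular cAMP measured with PDE inhibitor Ro 20-1724 present during compound exposure; potency is read from the fitted curve at half-maximal effect; % is scaled to controls: 0 for no effect and ±100 for the full control effect; nearly all actives have a fitted effect of over 65% in size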
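Measurement of cellular cAMP by homogeneous time-resolved fluorescence following a 30 min compound exposure at 37C. The PDE inhibitor […] was present throughout; the assay buffer was DPBS with 0.05% BSA and 0.005% Tween 20.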
gsp agonist = qHTS for Agonist of gsp, the Etiologic Mutation Responsible for Fibrous Dysplasia/McCune-Albright Syndrome: qHTS | 0.13% of 340,000 active | AID 624287, 2012 | Potency, µM (doses to about 76.9 µM), without a hit: at the highest dose activation (cAMP increase), hits mostly activators | gsp mutant cells, cAMP HTRF, 30 min; control for the full effect not named in the record; active = well fitted activation curve with a large enough effect; inconclusive = small, poorly fitted or top-dose-only effect, or another doubt; inactive = no such curve, though single readings can be large or run the other way; cell line not stated here;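 also: phosphodiesterase inhibitor Ro 20-1724 added with compounds to block cAMP breakdown; potency is read from the fitted curve at half-maximal effect; nearly all actives have a fitted effect of over 60% in size; about a fifth of the inactives were tested at one dose only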
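Cells stably selected in G418 were plated at 2000/well, grown 16-24 hr, then given compounds in DMSO with the PDE inhibitor […] (300 uM solution added) for 30 min at 37C; cAMP was read by HTRF.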
* hit, by the source's call; [ ] = dose if it differs, or a comment.

What do the screens show for `COc1ccc(CCNC(=O)C2CCCN(C(=O)N(C)C)C2)c(OC)c1` (stereo not drawn)?
TRPML1 blocker: 8; TRPML1 ag: 0.7; Menin MLL FP FL: -1.8; ClpP mod: -1.7%; gsp antag: 4%; gsp agonist: 4%

How did COc1cccc(NC(=S)NC(=O)Cc2ccccc2)c1 do in these assays?
TRPML1 blocker: 2; TRPML1 ag: 0.6; ClpP mod: -1.5%; gsp antag: 1%; gsp agonist: 12%

Results for Cc1[nH]nc2c1C(c1ccccn1)N(c1ccc(Br)cc1)C2=O (stereo not drawn) ?
TRPML1 blocker: 2; TRPML1 ag: 0.4; Menin MLL FP FL: 1.9; ClpP mod: 1.4%; gsp antag: -13%; gsp agonist: 3%

What do the screens show for `Cc1ccc(NC(=O)c2cc(NC(=O)CCCC(=O)O)ccc2Cl)cc1Cl`?
TRPML1 blocker: 14; TRPML1 ag: -0.6; Menin MLL FP FL: 6.2; ClpP mod: -2.4%; gsp antag: -11%; gsp agonist: -15%

Results for COc1ccc(C)cc1NC(=O)CCCN1C(=O)CN(C)C1=O ?
TRPML1 blocker: -4; TRPML1 ag: -0.6; ClpP mod: -0.5%; gsp antag: 4%; gsp agonist: inconclusive

What do the screens show for `CCc1ccc(NC(=O)CSc2nc(-c3ccccc3)no2)cc1`?
TRPML1 blocker: 7; TRPML1 ag: 0.9; ClpP mod: 0.4%

What do the screens show for `O=C(c1cc(N2C(=O)C3C4CCC(C4)C3C2=O)ccc1Cl)N1CCN(c2ccccc2)CC1` (stereo not drawn)?
TRPML1 blocker: 10; TRPML1 ag: -0.5; Menin MLL FP FL: -0.1; ClpP mod: 0.9%; gsp antag: -25%; gsp agonist: 0%

How did COc1cc(/C=C2\NC(=S)NC2=O)ccc1OCc1cccc(C(=O)O)c1 do in these assays?
TRPML1 blocker: 9; TRPML1 ag: -1.3; Menin MLL FP FL: 4.6; ClpP mod: -2.4%; gsp antag: 4%; gsp agonist: 10%[15.4 µM]

What do the screens show for `Clc1ccc2nc(-c3ccc(N4CCOCC4)cc3)c(Nc3ccccc3)n2c1`?
TRPML1 blocker: 10; TRPML1 ag: 0.8; ClpP mod: 3.1%

What do the screens show for `COc1ccc(/C=C(/NC(=O)c2ccccc2)c2nc3ccccc3[nH]2)cc1OC`?
TRPML1 blocker: -13; TRPML1 ag: 1.6; Menin MLL FP FL: 1.9; ClpP mod: -7.7%; gsp antag: 14%; gsp agonist: -25%

What do the screens show for `O=C(CSc1nnc(COc2ccccc2F)n1-c1ccccc1)NCc1ccco1`?
TRPML1 blocker: 27; TRPML1 ag: 1.7; Menin MLL FP FL: 3.2; ClpP mod: -0.7%; gsp antag: -7%; gsp agonist: -15%

How did c1ccc2c(COn3nnc4ccccc43)cccc2c1 do in these assays?
TRPML1 blocker: -7; TRPML1 ag: 0.4; Menin MLL FP FL: 0.3; ClpP mod: 0.3%; gsp antag: -13%; gsp agonist: -21%

How did COc1cc(C(=O)NC(=S)N2CCN(C)CC2)cc(OC)c1OC do in these assays?
TRPML1 blocker: 3; TRPML1 ag: 0.2; gsp antag: -17%; gsp agonist: 15%

What do the screens show for `COc1ccccc1NS(=O)(=O)c1ccc(NC(=O)CCNC(=O)c2ccco2)cc1`?
TRPML1 blocker: 8; TRPML1 ag: 1.1; Menin MLL FP FL: -1.8; ClpP mod: -2.2%; gsp antag: -15%; gsp agonist: -37%[inhibitor]

What do the screens show for `O=c1c(Oc2ccccc2Br)c(C(F)(F)F)oc2c(CN3CCCC3)c(O)ccc12`?
TRPML1 blocker: 8; TRPML1 ag: 0.4; Menin MLL FP FL: 0.7; ClpP mod: -2.8%; gsp antag: -5%; gsp agonist: 28%

Results for COc1ccc(CNC(=O)c2cc(-c3ccc(C)c(C)c3)n[nH]2)cc1 ?
TRPML1 blocker: 18; TRPML1 ag: 2.8; ClpP mod: 0.0%

How did CN(C)c1nc(-c2cccs2)cc(C(F)(F)F)c1C#N do in these assays?
TRPML1 blocker: 2; TRPML1 ag: 0.4; Menin MLL FP FL: 2.7; gsp antag: -22%; gsp agonist: -1%[15.4 µM]

What do the screens show for `CCOC(=O)c1c(NC(=S)N2CCN(C)CC2)sc(C)c1-c1ccccc1`?
TRPML1 blocker: 21; TRPML1 ag: 0.8; Menin MLL FP FL: -1.6; ClpP mod: -0.1%; gsp antag: 0%; gsp agonist: -9%

What do the screens show for `O=C(NC1CCCN(c2ccc(C(F)(F)F)cn2)C1)c1cc(Cl)ccc1F` (stereo not drawn)?
TRPML1 blocker: 66; TRPML1 ag: 1.4; ClpP mod: -2.5%; gsp antag: -25%; gsp agonist: -9%

What do the screens show for `CCOC(=O)c1c(NC(=O)CCS(=O)(=O)c2ccccc2)sc2c1CCN(C)C2`?
TRPML1 blocker: 3; TRPML1 ag: -0.8; ClpP mod: -2.4%; gsp antag: 1%; gsp agonist: 0%

What do the screens show for `C=CCOc1c(Br)cc(CNc2ccc(NC(=O)C(C)C)c(OC)c2)cc1OCC`?
TRPML1 blocker: -18; TRPML1 ag: 0.0; Menin MLL FP FL: 0.3; ClpP mod: 5.0%; gsp antag: 1%; gsp agonist: 5%

Results for O=C(OCC(=O)N1CCc2ccccc2C1)c1ccc(N2CCOCC2)c([N+](=O)[O-])c1 ?
TRPML1 blocker: 7; TRPML1 ag: -0.5; Menin MLL FP FL: 1.0; ClpP mod: 0.9%; gsp antag: 1%; gsp agonist: inconclusive

How did Cn1nc(C(F)(F)F)c2cc(NC(=O)OCc3ccc(C(C)(C)C)cc3)sc21 do in these assays?
TRPML1 blocker: 48; TRPML1 ag: 1.3; Menin MLL FP FL: 4.7; ClpP mod: -3.1%; gsp antag: 2%; gsp agonist: 3%[15.4 µM]

Results for CCOC(=O)N1CCN(C(=O)/C(=C/c2cccs2)NC(=O)c2cccs2)CC1 ?
TRPML1 blocker: 25; TRPML1 ag: -0.7; Menin MLL FP FL: -4.1; gsp antag: -10%; gsp agonist: 30%[15.4 µM]

Results for CCCC(C(=O)NC1CCCC1)N(C(=O)c1snc(C(N)=O)c1N)c1ccc(F)cc1 (stereo not drawn) ?
TRPML1 blocker: 1; TRPML1 ag: 0.1; Menin MLL FP FL: -5.8; gsp antag: -5%; gsp agonist: -13%

How did CCCCOC(=O)CSc1nnc(N)s1 do in these assays?
TRPML1 blocker: -12; TRPML1 ag: 0.3; Menin MLL FP FL: 1.1; ClpP mod: -1.4%; gsp antag: 8%; gsp agonist: 26%

Results for CSCCC(NC(=O)c1cccc(C)c1)C(=O)OCN1C(=O)c2ccccc2C1=O (stereo not drawn) ?
TRPML1 blocker: -1; TRPML1 ag: -0.6; ClpP mod: -2.1%; gsp antag: -4%; gsp agonist: 6%

Results for C=CCc1cccc2cc(C(=O)OCC(=O)c3ccccc3)c(=O)oc12 ?
TRPML1 blocker: 17; TRPML1 ag: 0.5; Menin MLL FP FL: 0.6; ClpP mod: inconclusive; gsp antag: 3%; gsp agonist: 29%

How did NC(=O)c1cc(S(=O)(=O)Nc2cccc(F)c2)co1 do in these assays?
TRPML1 blocker: -11; TRPML1 ag: 1.0; Menin MLL FP FL: -2.2; ClpP mod: 1.8%; gsp antag: 2%; gsp agonist: inconclusive

How did CC(=O)Nc1ccc(N(C(=O)CNC(=O)c2cccs2)C(C(=O)NC(C)(C)C)c2ccccc2)cc1 (stereo not drawn) do in these assays?
TRPML1 blocker: 0; TRPML1 ag: 1.0; Menin MLL FP FL: 4.7; gsp antag: 3%; gsp agonist: -6%[15.4 µM]

How did Cc1nc2cc(NC(=O)N(C)c3ccc4ccccc4c3)ccc2o1 do in these assays?
TRPML1 blocker: -4; TRPML1 ag: 0.5; Menin MLL FP FL: 1.5; ClpP mod: -27%; gsp antag: 5%; gsp agonist: -10%

Results for N#CCCN(C(=O)COC(=O)c1n[nH]c2ccccc12)c1ccccc1 ?
TRPML1 blocker: 35; TRPML1 ag: 4.7; ClpP mod: 17%; gsp antag: -9%; gsp agonist: -18%

How did Cc1cc(OC(=O)c2ccc(S(=O)(=O)N3CCCC3)cc2)c([N+](=O)[O-])c(=O)[nH]1 do in these assays?
TRPML1 blocker: 29; TRPML1 ag: 1.1; Menin MLL FP FL: 4.5; ClpP mod: 0.5%; gsp antag: -3%; gsp agonist: -3%

What do the screens show for `CSc1ncc(C(=O)NCc2cccc(F)c2)c(-c2ccccc2)n1`?
TRPML1 blocker: 0; TRPML1 ag: 2.2; ClpP mod: -0.4%

How did CC(C)(C)c1ccc(S(=O)(=O)NCc2ccc3c(c2)CCN3C(=O)c2ccccc2)cc1 do in these assays?
TRPML1 blocker: 13; TRPML1 ag: 3.0; ClpP mod: -2.1%

What do the screens show for `CC1(C)Cc2ccccc2C(N/N=C/c2ccc(Cl)cc2)=N1`?
TRPML1 blocker: -17; TRPML1 ag: -0.2; Menin MLL FP FL: 6.4; ClpP mod: -0.9%; gsp antag: -12%; gsp agonist: 3%

How did O=C(COC(=O)C1CCN(c2ccc(C(F)(F)F)cn2)CC1)NCc1ccccc1 do in these assays?
TRPML1 blocker: 2; TRPML1 ag: 1.5; ClpP mod: -17%; gsp antag: -9%; gsp agonist: -25%

Results for Cc1ccc(NC(=S)N2CCCCCC2)cc1 ?
TRPML1 blocker: 2; TRPML1 ag: -0.2; Menin MLL FP FL: 4.0; ClpP mod: -0.4%; gsp antag: 4%; gsp agonist: 11%[15.4 µM]

How did O=C(CC1OC(=O)c2ccccc21)Nc1cc(S(=O)(=O)N2CCOCC2)ccc1OCC(F)(F)F (stereo not drawn) do in these assays?
TRPML1 blocker: 19; TRPML1 ag: 1.0; ClpP mod: -1.9%; gsp antag: 4%; gsp agonist: inconclusive

Results for CCOc1ccc(CCN2C(=S)N([C@@H](CC(C)C)CN3CCC[C@@H]3CN3C(=S)NC[C@@H]3Cc3ccc(O)cc3)C[C@@H]2Cc2ccc(O)cc2)cc1 ?
TRPML1 blocker: 4; TRPML1 ag: -0.5; ClpP mod: 1.6%

Quoted at random: 2 compounds from above.
How did O=C(COC(=O)C1CCN(c2ccc(C(F)(F)F)cn2)CC1)NCc1ccccc1 do in these assays?
TRPML1 blocker: 2; TRPML1 ag: 1.5; ClpP mod: -17%; gsp antag: -9%; gsp agonist: -25%

How did Cc1nc2cc(NC(=O)N(C)c3ccc4ccccc4c3)ccc2o1 do in these assays?
TRPML1 blocker: -4; TRPML1 ag: 0.5; Menin MLL FP FL: 1.5; ClpP mod: -27%; gsp antag: 5%; gsp agonist: -10%

Screens as filed in PubChem BioAssay.
